SARS PLpro yeast: qHTS of Yeast-based Assay for SARS-CoV PLP | S. cerevisiae expressing SARS-CoV PLpro, growth rescue; control for the full effect not named in the record | Potency, µM (top dose mostly 32.9 µM), for the others: at the highest dose activity, positive = growth rescue | 0.19% of 330,000 active; note: 0% is about no effect; nearly all actives have a fitted effect of over 55% in size; growth read by luminescence after 48 h
Cruzain inh Det: qHTS Assay for Promiscuous and Specific Inhibitors of Cruzain (with detergent). Cruzipain (Trypanosoma cruzi), P25779. purified cruzain, Z-FR-AMC fluorescence, 0.01% Triton. Potency, µM, for the others: max response, negative = inhibition, most hits filed as inhibitors. 0.43% of 200,000 active. AID 1478, 2009; active = well fitted curve in the direction sought with a large enough effect; inconclusive = small, poorly fitted or top-dose-only effect, or another doubt; inactive = no such curve, though single readings can be large; an effect the other way counts as inactive or inconclusive;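 note: plate controls were neutral wells for no effect and buffer without enzyme for full effect; nearly all actives have a fitted effect of over 40% in size; top concentration of the series not given in the record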
Target sequence (P25779 123-467 limits assumed): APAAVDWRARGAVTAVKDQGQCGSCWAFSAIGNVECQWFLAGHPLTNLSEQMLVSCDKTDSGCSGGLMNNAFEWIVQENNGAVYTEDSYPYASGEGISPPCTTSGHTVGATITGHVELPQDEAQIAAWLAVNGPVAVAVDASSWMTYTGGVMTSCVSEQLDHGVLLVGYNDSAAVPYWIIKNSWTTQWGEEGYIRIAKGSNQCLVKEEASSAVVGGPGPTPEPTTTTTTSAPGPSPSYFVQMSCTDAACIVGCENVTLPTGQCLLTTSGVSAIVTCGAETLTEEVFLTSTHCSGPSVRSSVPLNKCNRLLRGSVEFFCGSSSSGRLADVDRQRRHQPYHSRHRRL
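Read-out: AMC fluorescence (360 nm excitation, 450 nm emission), four reads over 2 min, first-to-third difference used. Conditions: cruzain 1.5 nM, Z-FR-AMC 2 uM, pH 5.5 acetate, 5 mM DTT, 0.01% Triton X-100.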
Cruzain noTriton: qHTS Assay for Promiscuous and Specific Inhibitors of Cruzain (without detergent); Potency, µM, for the others: max response, negative = inhibition, usual class: inhibitors; purified cruzain, Z-FR-AMC fluorescence, no detergent; 2.3% of 200,000 active; active = well fitted curve in the direction sought with a large enough effect; inconclusive = small, poorly fitted or top-dose-only effect, or another doubt; inactive = no such curve, though single readings can be large; an effect the other way counts as inactive or inconclusive;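 note: plate controls were enzyme without inhibitor for no effect and buffer without enzyme for full effect; nearly all actives have a fitted effect of over 40% in size; top concentration of the series not given in the record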
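Detergent-free condition (0.00005% Triton X-100) in acetate buffer pH 5.5 with DTT. 1.5 nM enzyme and compound were pre-mixed 15 min, then 2 uM Z-FR-AMC substrate added; reaction progress from fluorescence change between first and third reads (60 s).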
StopGo reporter: High Throughput Screening for Foot and Mouth Disease Virus Antivirals; human cells with a luciferase reporter of 2A StopGo recoding; control for the full effect not named in the record; 1.2% of 410,000 active; AID 1159524, 2015; Potency, µM (doses to about 57.9 µM), for the others: top-dose signal change, negative = less light; active = well fitted falling curve with a large enough effect; inconclusive = small, poorly fitted or top-dose-only effect; inactive = no such curve, though single readings can be large or run the other way; tested in HEK293T cells; note: % is set by controls: 0 for no effect and ±100 for the full control effect; nearly all actives have a fitted effect of over 45% in size; luciferase light after 4 h
NS1 function inh: qHTS Assay for Inhibitors of Influenza NS1 Protein Function | S. cerevisiae slowed by influenza A NS1, growth recovery by OD600 | Potency, µM (highest dose often 46.1 µM), without a hit: top-dose activity, positive = more growth | 0.4% of 270,000 active; note: actives are rising curves; nearly all actives have a fitted effect of over 50% in size
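A cell-based growth assay was used: compounds that relieve NS1-induced slow growth of budding yeast raise OD600. Assay medium was yeast nitrogen base with ammonium sulphate and -URA supplement, pH 6.0, with 2% galactose.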
RE007 growth inh: qHTS Assay for Inhibitors of the HIV-1 protein Vpr; 0.21% of 360,000 active; AID 651644, 2012; S. pombe RE007 Vpr strain, BacTiter-Glo ATP luminescence, 24 h; control for the full effect not named in the record; Potency, µM (titrated, usually from 92.2 µM), for inactives: at the top dose activity change, negative = less growth; active = well fitted falling curve with a large enough effect; inconclusive = small, poorly fitted or top-dose-only effect; inactive = no such curve, though single readings can be large or run the other way;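 note: % is set by controls: 0 for no effect and ±100 for the full control effect; nearly all actives have a fitted effect of over 50% in size; the assay follows cell death caused by Vpr and the record does not say whether a fall means rescue or toxicity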
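Fission yeast strain RE007, carrying one chromosomally integrated HIV-1 vpr copy, was seeded at OD 0.01 in PMG+AL medium with 23 nL pinned compound. After 24 h at 30 °C and 99% humidity, viability was read by BacTiter-Glo luminescence.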
LASV entry inh: qHTS for Inhibitors of binding or entry into cells for Lassa Virus. Potency, µM (doses to about 37.9 µM), without a hit: top-dose activity change, negative = inhibition, hits mostly inhibitors. AID 540256, 2011. Lassa virus pseudotype entry inhibition, cell reporter; control for the full effect not named in the record. 1.2% of 300,000 active; active means well fitted inhibition curve with a large enough effect; inconclusive means small, poorly fitted or top-dose-only effect, or effect the other way; inactive means flat fitted curve, though single readings scatter; tested in HEK293 cells; note: % is set by controls: 0 for no effect and ±100 for the full control effect; nearly all actives have a fitted effect of over 50% in size; luciferase read-out
Marburg entry inh: qHTS for inhibitors of binding or entry into cells for Marburg Virus. 1.8% of 300,000 active. Marburg virus pseudotyped entry inhibition, cell reporter; control for the full effect not named in the record; about a third of the inactives were read at about 46 µM. Potency, µM (doses to about 37.8 µM), inactives show top-dose activity change, negative = inhibition, hits mostly inhibitors. AID 540276, 2011; active = well fitted inhibition curve with a large enough effect; inconclusive = small, poorly fitted or top-dose-only effect, or effect the other way; inactive = flat fitted curve, though single readings scatter; tested in HEK293 cells; about a fifth of its hits are not listed in these tables; note: % is set by controls: 0 for no effect and ±100 for the full control effect; luciferase read-out
* hit, by the source's call; ? = inconclusive; · = not tested or not shown; [ ] = another dose, or the depositor's remark. Unless noted, calls come from the whole dose curve; as a rule, active means well fitted rising curve with a large enough effect; inconclusive means small, poorly fitted or top-dose-only effect; inactive means no such curve, though single readings can be large or run the other way. Potency is the fitted concentration of half-maximal effect.

SMILES | SARS PLpro yeast | Cruzain inh Det | Cruzain noTriton | StopGo reporter | NS1 function inh | RE007 growth inh | LASV entry inh | Marburg entry inh
C=CCSc1nc2sc3c(c2c(=O)n1CC)CCC3 | -0.9% | · | · | 1.1% | -18.4% | -25.7% | · | ·
CCOc1ccc(OCC)c(S(=O)(=O)n2ccnc2C)c1 | -16.8% | · | · | 14.9% | -77.2% | 3.1% | 0.0%[46.1 µM] | ?
Cc1ccc(-n2nc3c(N4CCC(C(=O)NCCc5cccs5)CC4)nnc(C)c3c2C)cc1 | 27.6% | · | · | 25.1µM* | 16.3% | -2.7% | · | ·
COC(=O)c1c(NC(=O)CSc2n[nH]c(N)n2)sc(C)c1C | -3.8% | -13.1% | 0.3% | 6.2% | 1.0% | 12.0% | -7.4% | ?
O=C1NC(=O)C(CCc2ccncc2)(CCc2ccncc2)C(=O)N1C1CCCCC1 | 1.6% | · | · | 10.1% | 0.9% | -15.0% | ? | -17.2%[46.1 µM]
Nc1nccc(/C=C/c2c(Cl)cccc2Cl)n1 | 0.1% | · | · | -2.3% | -3.7% | -2.0% | -24.7% | ?
O=c1c2ccccc2nnn1CSc1ccccc1F | 1.2% | -3.9% | -16.4% | -28.6% | -15.2% | -5.6% | ? | ?
Cc1ccc(CC2(O)CC(C)N(C)CC2C)c(C)c1 (configuration not stated) | 4.1% | 0.3% | 0.0% | 11.7% | -6.9% | 9.0% | 7.6% | -7.5%[46.1 µM]
Cc1ccc(CNC(=O)c2nn(C)c3c2CSc2ccc(C)cc2-3)cc1 | · | -3.5% | 20µM* | -19.4% | · | · | -23.6%[46.1 µM] | ·
O=C(/C(=C/O)N=Nc1ccccc1)c1cccs1 | -10.0% | · | · | ? | · | ? | ? | ?
CC(=O)Nc1ccc(C(=O)NCC(=O)OCc2c(F)cccc2Cl)cc1 | 0.7% | · | · | 32.8%[activator] | · | 1.2% | 0.9% | 10.4%[46.1 µM]
Cc1cc(C)c(NC(=O)CN2C(=O)C3(SCC(=O)N3c3ccc(F)cc3)c3ccccc32)c(C)c1 (configuration not stated) | · | -2.9% | 6.8% | -23.5% | · | · | -15.8%[46.1 µM] | ·
Cc1cccc(-n2ncc3c(NCCCN4CCCC4=O)ncnc32)c1 | -2.5% | 3.8% | 12.8% | 2.4% | -11.0% | -1.5% | -25.1% | 5.6%
CC1CCCN(C(=O)CN2CCC(c3nc4ccc(Cl)cc4[nH]3)CC2)C1 (configuration not stated) | 0.5% | · | · | -26.8% | -7.3% | 6.3% | · | ·
CCc1ccc2c(CN3CCC(C(=O)OC)CC3)cc(=O)oc2c1 | 0.4% | · | · | 21.6% | 1.2% | 6.3% | -0.3%[46.1 µM] | 5.8%[46.1 µM]
CN1C(=O)/C(=C/c2ccco2)SC1=Nc1ccc(N2CCOCC2)cc1 | -17.1% | -5.4% | 20.3% | -11.9% | 9.0% | -0.7% | ? | 1.8%
CCN(CC)S(=O)(=O)c1ccc(C(=O)OCC(=O)NCc2ccco2)cc1 | -1.1% | · | · | -12.5% | · | -3.8% | 23.7%[46.1 µM] | -2.7%[46.1 µM]
CCOc1ccc(NS(=O)(=O)c2ccc(C(=O)NCC(c3cccs3)N3CCOCC3)cc2)cc1 (configuration not stated) | 2.3% | · | · | 3.7% | · | -22.6% | ? | 13.6%
COc1cc(C(O)P(=O)(OC(C)C)c2ccc(N(C)C)cc2)cc(OC)c1OC (configuration not stated) | -0.6% | 3.0% | 5.0% | 3.5% | 1.7% | 16.0% | -0.5% | 12.1%
Cc1ccccc1NC(=O)Cc1nc(COC(=O)C(C)C)cs1 | -5.8% | · | · | -11.1% | 4.7% | 2.2% | · | ·
CC1=Nc2cc(C(=O)NCCc3ccc(Cl)cc3)ccc2Sc2c(C)ccc(C)c21 | · | -1.3% | 25.1µM* | -27.5% | · | · | ? | ?
Cc1ccc(C)c(N=Cc2ccc(-c3ccc([N+](=O)[O-])cc3)o2)c1 | 18.2% | · | · | -22.3% | · | -14.8% | ? | -23.7%[46.1 µM]
CC(C)(C)c1ccc(S(=O)(=O)N2CCCC2C(=O)N2CCOCC2)cc1 (configuration not stated) | 1.5% | · | · | -5.0% | 1.8% | -11.4% | 8.5%[46.1 µM] | 7.7%[46.1 µM]
COCCNS(=O)(=O)c1ccc(-c2ccc(Cl)cc2)cc1 | -1.0% | · | · | ? | 0.2% | 19.1% | 3.4% | ?
Cc1ccc(CN(C(=O)c2ccccc2C)C2CCS(=O)(=O)C2)o1 (configuration not stated) | 4.1% | · | · | 0.0% | 3.0% | 0.5% | -1.4% | 8.0%

Reprinted from the part before: 2 compounds, then new ones.
SMILES | SARS PLpro yeast | Cruzain inh Det | Cruzain noTriton | StopGo reporter | NS1 function inh | RE007 growth inh | LASV entry inh | Marburg entry inh
COCCNS(=O)(=O)c1ccc(-c2ccc(Cl)cc2)cc1 | -1.0% | · | · | ? | 0.2% | 19.1% | 3.4% | ?
Cc1ccc(CN(C(=O)c2ccccc2C)C2CCS(=O)(=O)C2)o1 (configuration not stated) | 4.1% | · | · | 0.0% | 3.0% | 0.5% | -1.4% | 8.0%
Cc1onc(-c2c(F)cccc2Cl)c1C(=O)Nc1cccc2nsnc12 | -1.5% | -9.2% | 0.6% | ? | 4.4% | -9.3% | ? | ?
Cc1ccccc1-c1nc(C#N)c(N2CCC(C)CC2)o1 | -5.0% | · | · | 27.3% | -2.6% | -5.4% | · | ·
CN(C)S(=O)(=O)c1ccc(NC(=O)Cn2c(-c3ccccc3)noc2=O)cc1 | -3.7% | 4.7% | 0.4% | · | -4.3% | 45.0% | 0.8% | 7.3%
c1csc(C2=NNC(=NC3CCCCC3)SC2)c1 | 8.4% | · | · | 16.4% | · | -16.7% | -6.3% | 23.4%[46.1 µM]
CC(=O)C(C)n1c(CN(C)Cc2ccccc2)nc2c1c(=O)n(C)c(=O)n2C (configuration not stated) | -1.0% | · | · | -15.5% | -2.2% | -3.7% | -6.7%[46.1 µM] | ?
CCOC(=O)c1c(C)oc2ccc(N(C(=O)Oc3ccccc3)S(=O)(=O)c3ccc(CC)cc3)cc12 | · | -12.6% | -6.8% | 5.2% | · | · | -22.5%[46.1 µM] | ·
O=C(CSc1cn(CC(=O)N2CCCCC2)c2ccccc12)NCc1ccc(F)cc1 | · | -3.9% | 6.8% | 23.8% | · | · | -8.0%[46.1 µM] | ·
Cn1c(=O)c(C(=O)Nc2ccccn2)c(O)c2ccccc21 | -2.7% | -5.6% | ? | -19.2% | -33.1% | -23.9% | ? | ?
CCOCCCNC(=O)c1cc2c(=O)n3cccc(C)c3nc2s1 | -1.6% | · | · | 11.6% | 1.7% | 5.7% | · | ·
O=c1c2c([nH]n1-c1ccccc1)CCCC2 | 0.1% | · | · | 12.9% | -2.6% | 7.1% | -2.9%[46.1 µM] | -19.0%[46.1 µM]
CCOc1ccc(OCCN2C(=O)c3ccccc3C2=O)cc1 | -2.3% | · | · | 63.4%[activator] | -9.8% | 7.3% | · | ·
O=C(N/N=C/c1coc2ccc(Cl)cc2c1=O)c1ccncc1 | ? | · | · | -14.1% | -17.8% | -0.4% | 7.3% | 0.7%
CCOc1ccc(CN(CC)C(=O)Cc2c[nH]c3ccccc23)cc1OC | -7.2% | · | · | -11.2% | -3.2% | 66.2% | ? | ?
CCOc1ccccc1CN1CCCC(CNC(=O)Cc2ccc(OC)cc2)C1 (configuration not stated) | 10.7% | · | · | -20.8% | -7.3% | -0.2% | · | ·
CC(=O)Nc1ccc(NC(=O)CN2C(=O)CN(C)C(=O)c3ccccc32)cc1 | · | 2.1% | 11.7% | -13.3% | · | · | 3.5%[46.1 µM] | ·
CC(c1ccco1)N(C(=O)c1ccc(Cl)c([N+](=O)[O-])c1)c1ccccn1 (configuration not stated) | -1.5% | · | · | 5.2% | -30.6% | -3.6% | 20.4%[46.1 µM] | ?
COc1cc(/C=N/NC(=O)C(=O)NCC2CCCO2)ccc1O (configuration not stated) | 7.4% | -1.9% | -1.8% | -6.0% | 1.5% | 2.2% | 4.7% | 2.3%
CN(c1ccccc1)c1ccc(/C=N/N2CCOCC2)cc1 | -15.1% | -10.9% | 9.0% | 8.2% | -5.7% | -0.8% | ? | ?
COC(=O)c1[nH]c2cccc(OC)c2c1NC(=O)CN1CCOCC1 | -14.3% | 0.9% | -5.2% | -17.1% | 6.9% | -2.9% | 8.9% | 9.3%
CCOc1ccccc1N(C)S(=O)(=O)c1ccc2c(c1)CCN2C(=O)CCC(=O)O | 0.4% | · | · | -1.0% | 7.3% | 13.1% | 3.6%[46.1 µM] | 1.5%[46.1 µM]
CC1CCN(C(=O)COC(=O)c2ccc3c(c2)OCO3)CC1 | -3.6% | · | · | 38.7%[activator] | · | -8.1% | ? | ?
O=C(CN(Cc1ccc2c(c1)OCO2)C(=O)CNS(=O)(=O)c1ccccc1)NCc1ccco1 | 1.5% | 5.1% | -10.4% | 13.4% | -2.0% | -2.0% | -8.5% | 0.0%[46.1 µM]
CSc1ncccc1C(=O)N1CCCC(CCC(=O)NCc2ccccc2F)C1 (configuration not stated) | 0.0% | · | · | 3.7% | -3.1% | 24.1% | · | ·
CC(C(=O)c1ccccc1)[n+]1cccc(Br)c1 (configuration not stated) | 11.7% | · | · | -4.7% | 1.9% | 0.4% | 19.8% | ?
CCOc1ccc(NC(=O)Cn2nnc(-c3ccc(C(N)=O)cc3)n2)cc1S(=O)(=O)N1CCCC1 | 0.9% | · | · | 35.7%[activator] | · | -15.2% | 2.2% | 7.0%
CCCOc1ccc(C(=O)NCCCn2ccnc2)cc1 | -2.2% | 0.8% | -8.2% | -22.4% | 1.0% | 18.6% | 3.2% | 6.3%
Cc1cccc(OCC(=O)Nc2ccc3c(c2)OCCO3)c1 | -6.8% | -2.2% | 2.2% | 33.4%[activator] | -37.4% | -3.5% | ? | 2.4%[46.1 µM]
